# Bioassay records as filed in PubChem.
# nsP2pro primary: inhibitors of chikungunya virus nsP2 protease. Potency, µM (doses to about 24.9 µM), for the others: top-dose activity change, negative = inhibition, most hits filed as inhibitors. Q8JUX6. AID 1964107. hit rate 1.1% among 31,000. FRET peptide cleavage, nsP2pro, fluorescence 1 h; active means well fitted inhibition curve with a large enough effect; inconclusive means small, poorly fitted or top-dose-only effect; inactive means no such curve, though single readings can be large or run the other way; also: nearly all actives have a fitted effect of over 60% in size; a reference inhibitor and vehicle were the controls
# Numbers without * were called inactive; i = inactive; u = inconclusive; & = joins results of further samples; [ ] = remark or other dose. % is scaled to controls: 0 for no effect and ±100 for the full control effect; potency is read from the fitted curve at half-maximal effect. These rows are one share of the data; count on the stated rates, not on these rows.
item	SMILES	nsP2pro primary
1	CO[C@H]1[C@H](NC(=O)c2ccc(C)c(O)c2)c2ccccc2C12CCNCC2	-6%
2	CCOC(=O)c1cc(C#N)c(N2CCC(C(=O)NS(=O)(=O)Cc3ccccc3)CC2)nc1C	-3%
3	COc1cc(C#N)ccc1S(=O)(=O)Nc1ccc2c(c1)cc(C)c(=O)n2C	13%
4	Cc1ccccc1N1CCCN(Cc2ccccc2OCCO)CC1	i
5	COCCCNC(=O)CCCn1c(=O)c2cccn2c2cccnc21	-8%
6	Fc1cc(Nc2nc(-c3ccncc3)nc3ccccc23)ccc1-c1ccc2[nH]ncc2c1	i
7	Cc1cccc(-c2nc(CN3CCCC(C(=O)N4CCN(c5cc(Cl)ccc5C)CC4)C3)c(C)o2)c1 (configuration not stated)	u
8	CC[C@H]1OC(=O)C[C@@H](O)[C@H](C)[C@@H](O[C@@H]2O[C@H](C)[C@@H](O[C@H]3C[C@@](C)(O)[C@@H](O)[C@H](C)O3)[C@H](N(C)C)[C@H]2O)[C@@H](CC=O)C[C@@H](C)C(=O)/C=C/C(C)=C/[C@@H]1CO[C@@H]1O[C@H](C)[C@@H](O)[C@@H](OC)[C@H]1OC	26%
9	O=C(C1CCCN(S(=O)(=O)c2cccc3nonc23)C1)N1CCN(c2cccc(C(F)(F)F)c2)CC1 (configuration not stated)	-11%
10	O=C(Cc1ccccc1)Nc1c(C(=O)c2ccccc2)oc2ccccc12	-1%
11	CCNC(=O)C#Cc1ccc2c(C(=Nc3ccc(CN(C)C)cc3)c3ccccc3)c(O)[nH]c2c1	24%[10 µM]
12	COCCCNC(=O)C1CCCN(c2ncnc3onc(C)c23)C1 (configuration not stated)	-23%
13	N#Cc1ncccn1	10%
14	CC1(C)CCCC2(C)C1C(=O)C=C(C(=O)O)C2(O)C(=O)O (configuration not stated)	63%[activator]
15	Nc1nc(=S)c2[nH]cnc2[nH]1	-6%&-3%
16	Oc1cccc(-c2c3nc(c(-c4cccc(O)c4)c4ccc([nH]4)c(-c4cccc(O)c4)c4nc(c(-c5cccc(O)c5)c5ccc2[nH]5)CC4)C=C3)c1	u
17	O=C(NCC(c1cccs1)S(=O)(=O)c1cccs1)c1ccccc1F (configuration not stated)	-14%
18	NC(=O)c1ccc(-c2noc(-c3cccc(Cl)c3)n2)cc1	i
19	Cc1ccc(-n2c(=O)cc(N3CCN(c4ccccc4Cl)CC3)[nH]c2=O)cc1	-13%
20	CCC(O)C1CCN(C(=O)c2cnn3cc(CN(CC)CC)cnc23)CC1 (configuration not stated)	i
21	Cc1nc(N2CCC(NC(=O)c3sccc3C)CC2)cc(C(F)(F)F)n1	i
22	CN(Cc1ccc(F)cc1)S(=O)(=O)c1nnc(NC(=O)c2ccccc2Br)s1	5%
23	Cc1cccc(-c2noc(CCCC(=O)NCc3ccco3)n2)c1	-28%
24	CNC(=O)CCCN1C(=O)c2cccnc2Sc2ccccc21	-18%
25	N[C@@H](Cc1ccccc1)C(=O)Nc1ccc(Cl)cc1C(=O)c1ccc[nH]1	1%
26	CCOc1ccc(C2CC(=O)Nc3c2c(C)nn3CC(=O)O)c(OCC)c1C (configuration not stated)	i
27	O=C(O)c1ccc(CCCc2ccc(OCCc3ccc(F)cc3)cc2)o1	31%[activator]
28	O=C(NCc1ccccn1)C1CCN(Cc2cc3n(n2)CCCNC3)CC1	-11%
29	C=C1C(=O)O[C@@H]2C[C@@]3(C)CCC[C@H](C)C3=C[C@H]12	11%
30	Oc1cc2c(cc1CN1CCN(c3ncccn3)CC1)OCO2	10µM*

# Rewritten as labelled records: 2 of the compounds above
1: CO[C@H]1[C@H](NC(=O)c2ccc(C)c(O)c2)c2ccccc2C12CCNCC2
- nsP2pro primary = -6%
2: CCOC(=O)c1cc(C#N)c(N2CCC(C(=O)NS(=O)(=O)Cc3ccccc3)CC2)nc1C
- nsP2pro primary = -3%

# The list goes on.
item	SMILES	nsP2pro primary
31	COc1ccc(CCC(=O)N2CCCC(n3cc(-c4nc(-c5ccccc5)no4)nn3)C2)cc1 (configuration not stated)	4%
32	O=S(=O)(Nc1nccs1)c1ccc(Nc2nc(-c3ccccc3)cs2)cc1	i
33	CCN(C(=O)Cn1nc2c3cc(F)ccc3n(Cc3cccc(C)c3)cc-2c1=O)c1cccc(C)c1	-6%
34	COc1ccc(OC)c(NC(=O)Cn2cc(C(=O)c3ccccc3F)c3ccccc32)c1	-21%
35	Cn1cc(C(=O)N2CCc3[nH]cnc3C2C2CCN(C(=O)C3CCOCC3)CC2)cn1 (configuration not stated)	u
36	COc1ccc(S(=O)(=O)N2CCCN(CC(=O)Nc3ccc(NC(C)=O)cc3)CC2)cc1	-19%
37	O=C([C@H](Cc1ccc(O[S+](=O)([O-])c2ccccn2)cc1)N[S+](=O)([O-])c1cccc2cnccc12)N1CCN(c2ccccc2)CC1	-13%
38	Cc1nccn1CC(=O)N1CCCn2cc(-c3cccc(C#N)c3)nc21	i
39	CN(C)c1cc(NC(=O)CNC(C)(C)C)c(O)c2c1C[C@H]1C[C@H]3[C@H](N(C)C)C(=O)C(C(N)=O)=C(O)[C@]3(O)C(=O)C1=C2O	130%[activator]
40	Cc1ccnn1-c1ccc(C(=O)N2CCN(S(=O)(=O)c3ccc(Cl)c(C(F)(F)F)c3)CC2)cc1	-7%
41	CCOC(=O)C1=C[C@@H](OC(CC)CC)[C@H](NC(C)=O)[C@@H](N)C1	-17%&-3%&1%
42	O=C(Cn1nc(-c2ccc(Cl)cc2)c2ccccc2c1=O)Nc1cccc(C(F)(F)F)c1	-11%
43	O=S(=O)(c1ccc(Cl)cc1)N1CCN(S(=O)(=O)c2ccc3c(c2)OCCO3)CC1	1%
44	COCCCn1c(C)cc(C(=O)N[C@@H]2CN(C)C[C@H]2CN(C)C)c1C	i
45	C=CCNC(=O)N[C@H]1C[C@@H](C(=O)N[C@@H](Cc2ccc(OC)cc2)C(N)=O)N(C(=O)CC(C)(C)C)C1	-1%
46	CCOC(=O)c1sc2ccccc2c1S(=O)(=O)N1CCN(c2ccccc2)CC1	-17%
47	CN(C)c1ccc(C(CNS(=O)(=O)c2ccc(Br)cc2)N2CCOCC2)cc1 (configuration not stated)	-12%
48	CN1CC(O)c2cc(N=NC(N)=O)c(O)cc21 (configuration not stated)	-10%
49	COc1ccc(NC(=O)CSc2ccc(-c3cccs3)nn2)cc1	-20%
50	COc1cccc(CNC(=O)c2c(C)oc3ncnc(N4CCOCC4)c23)c1	-10%
51	NC(=O)c1cccc(CN2CCCC3(Cc4ccccc4N(C(=O)c4ccc(Cl)cc4)C3)C2)c1 (configuration not stated)	1%
52	COc1ccc(Br)cc1CNC(=O)c1cc(=O)[nH]c2ccc(S(=O)(=O)N3CCCCC3)cc12	-15%
53	COc1ccc(C2Nc3ccccc3C(=O)N2C2CCCC2)cc1COc1ccc(NC(C)=O)cc1 (configuration not stated)	u
54	COc1cc2c(cc1OC(C)C)[C@H](c1ccc(Cl)cc1)N(c1ccc(N(C)CC3CCC(N4CCN(C)C(=O)C4)CC3)cc1)C(=O)C2 (some centres not stated)	29%
55	COc1cccc(CCNC(=O)c2c(C)noc2-c2ccco2)c1	u
56	CCCn1c(-c2ccc(F)cc2)nc2c(NCCN3CCCC3)nc(C)nc21	-2%
57	O=C(Nc1nnc(S(=O)(=O)N2CCCc3ccccc32)s1)c1ccccc1Br	39%[activator]
58	CC(C)CN(C[C@@H](O)[C@H](Cc1ccccc1)NC(=O)[C@@H](NC(=O)CNCc1cccc(F)c1)C(C)(C)C)S(=O)(=O)c1cccc(N)c1	-5%
59	CC(=O)Nc1cc(C(=O)NCc2ccc(F)cc2)ccc1S(=O)(=O)c1ccc(C)cc1	-16%
60	COc1ccc(OC)c(S(=O)(=O)NCC2CNCCOC2)c1 (configuration not stated)	-8%
61	Cc1ncc(COP(=O)(O)O)c(CN)c1O	-5%
62	CCCc1cc(=O)[nH]c(Nc2ccc(OCC)cc2)n1	-16%
63	CCOc1cccc(C2c3[nH]c4ccccc4c3CCN2C(=O)CSCc2ccc(F)cc2)c1 (configuration not stated)	-12%
64	CCOC(=O)N1CCN(c2ncc3c(n2)CC(c2ccc(OC)c(OC)c2)CC3=O)CC1 (configuration not stated)	-9%
65	COc1ccc(Cn2c3c(c(=O)n2Cc2ccccc2)CCN(Cc2c(C)noc2C)C3)cc1	-3%
66	CC(=O)N1c2ccccc2C(=O)C1N1CCN(c2cc(Cl)ccc2C)CC1 (configuration not stated)	-18%
67	CCC1CCCCN1S(=O)(=O)c1ccc(C(=O)Nc2sc3c(c2C(N)=O)CCC3)cc1 (configuration not stated)	0%
68	COc1cccc(-c2ccc(C(=O)NCCNC(=O)C3CCCC3)cc2)c1	3%[39.2 µM]
69	COCCN1C(=O)c2[nH]nc(-c3ccccc3O)c2C1c1ccc(OCc2ccccc2)c(OC)c1 (configuration not stated)	6%
70	CCOc1ccc(NC(=O)CNS(=O)(=O)c2ccc(Br)s2)cc1	-16%
71	Cc1ccc(-c2ccc(=O)n(CC(=O)N(C3CCCCC3)C3CC3)n2)cc1	3%
72	CCC(C)NC(=O)c1sc2nc(C)c(C(=O)Nc3ccc(C)cc3C)c(-c3ccc(NC(C)=O)cc3)c2c1N (configuration not stated)	-11%
73	CCC(C)NC(=O)CSc1nc2cc3c(cc2c(=O)n1CCCC(=O)NCc1ccc2c(c1)OCO2)OCO3 (configuration not stated)	-10%
74	O=C(NCC(=O)N1CCCC1)Nc1ccc2ccccc2c1	u
75	CCn1c(SCC(=O)Nc2cc(C)ccc2F)nnc1-c1ccccc1O	-15%
76	Nc1ccc(C(=O)Oc2ccccc2)c(O)c1	1%
77	O=C1CCCC2=C1C(c1[nH]ncc1Cl)N=C(Nc1nc3ccccc3o1)N2 (configuration not stated)	207%&-13%[activator]
78	N#Cc1cnc2c(Cl)cc(NCc3cn(CCN4CCCCCC4)nn3)cc2c1Nc1ccc(F)c(Cl)c1	u
79	CCNC(=O)[C@@H]1C[C@H](NC(C)=O)CN1C1CCN(c2ccc(C)cc2)CC1	-13%
80	COc1ccc(-c2cc3nc(C4CCN(C(=O)OC(C)(C)C)CC4)c(C(=O)Nc4cc(C)cc(C)c4)cn3n2)cc1	-15%
81	COCCN1CCCCCC(O)c2cc(C(=O)Nc3ccc(C)cc3)ccc21 (configuration not stated)	2%
82	O=C(/C=C/c1ccco1)Nc1ccc(F)cc1	6.3µM*
83	O=C(NC1CCN(c2cc(-c3ccc(Cl)cc3)[nH]n2)C1)c1ccc(Br)o1 (configuration not stated)	u
84	O=C(O)c1cccc(-c2noc(-c3ccccc3F)n2)c1	1%&-2%
85	CCn1c(C(=O)N2CCCC(C(=O)N3CCN(c4cc(C)ccc4C)CC3)C2)cc2sccc21 (configuration not stated)	-18%
86	Cc1cc2c(s1)c1cnn(Cc3ccc(C(C)(C)C)cc3)c(=O)c1n2C	2%
87	CC1CCC2(C(=O)O)CCC3(C)C(=CCC4C5(C)CCC(OC(=O)/C=C/c6ccccc6)C(C)(C)C5CCC43C)C2C1C (configuration not stated)	19%[10 µM]
88	NC1CCCCN(C(=O)c2ccc3n[nH]nc3c2)C1 (configuration not stated)	1%
89	COc1ccccc1N1CCN(C(=O)Cn2c(C)cc3nc4n(c(=O)c32)CCCCC4)CC1	-12%
90	CC(C)CCO[C@H]1COCCN(C2CCN(C)CC2)C1	1%[39.2 µM]

# The last 6 entries of the section before lead into the next:
item	SMILES	nsP2pro primary
85	CCn1c(C(=O)N2CCCC(C(=O)N3CCN(c4cc(C)ccc4C)CC3)C2)cc2sccc21 (configuration not stated)	-18%
86	Cc1cc2c(s1)c1cnn(Cc3ccc(C(C)(C)C)cc3)c(=O)c1n2C	2%
87	CC1CCC2(C(=O)O)CCC3(C)C(=CCC4C5(C)CCC(OC(=O)/C=C/c6ccccc6)C(C)(C)C5CCC43C)C2C1C (configuration not stated)	19%[10 µM]
88	NC1CCCCN(C(=O)c2ccc3n[nH]nc3c2)C1 (configuration not stated)	1%
89	COc1ccccc1N1CCN(C(=O)Cn2c(C)cc3nc4n(c(=O)c32)CCCCC4)CC1	-12%
90	CC(C)CCO[C@H]1COCCN(C2CCN(C)CC2)C1	1%[39.2 µM]
91	CNC(=O)c1ccc2cc([C@@]3(O)CCn4cncc43)ccc2c1	10%
92	C[N+]1(CCCCC[N+]2(C)CCCC2)CCCC1	-1%
93	COc1ccc(-c2noc(C(=O)O)c2[C@@H](C)NC(=O)C2CCCCC2)cc1	-5%[39.2 µM]
94	Cc1cc(C)n(CCc2nc3c4ccccc4nc(SCc4ccc(F)cc4)n3n2)n1	-17%
95	O=C(NCCN1CCC(n2c(=O)[nH]c3ccccc32)CC1)c1cc2cc(F)ccc2[nH]1	u
96	C=CCNC(=O)N[C@H]1CCN(C(=O)CSC)[C@@H]1C(=O)N1CCC[C@@H]1C(N)=O	-5%[39.2 µM]
97	O=C(CSCn1nnc2c(=O)[nH]c(Cc3ccc(F)cc3)nc21)Nc1cccc(C(F)(F)F)c1	-22%
98	Cc1ccc(OCC(=O)c2ccc3c(c2)N(CCCC(=O)N2CCCC2)C(=O)CO3)cc1C	-7%
99	COC(=O)[C@@]1(C)CC[C@]2(C(=O)O[C@@H]3O[C@H](CO)[C@@H](O)[C@H](O)[C@H]3O)CC[C@]3(C)C(=CCC4[C@@]5(C)CC[C@H](O[C@@H]6O[C@H](C(=O)O)[C@@H](O)[C@H](O)[C@H]6O)C(C)(C)C5CC[C@]43C)[C@@H]2C1 (some centres not stated)	29%[5.1 µM]
100	O=C(O)c1nn(Cc2ccc(Cl)cc2Cl)c2ccccc12	u
101	CCOCCCNC(=O)c1cc2c(=O)n(C)c3ccccc3c2n1C	1%
102	O=C(CSc1nc2ccccc2nc1Cc1ccccc1)Nc1ccccc1C(F)(F)F	-19%
103	O=C(N[C@H]1CCS[C@H]2CCC[C@@H](C(=O)O)N2C1=O)[C@@H](S)Cc1ccccc1	-25%
104	CC1=CC2/C=C(\C)CCC(O)C(O)/C=C/C(=O)C23C(=O)NC(CC(C)C)C3C1C (configuration not stated)	u
105	COc1ccccc1CN1CCC(CN(CC(C)C)C(=O)C2C=CCN2)CC1 (configuration not stated)	4%
106	COC(=O)CC1OC(C)C2=C(O)c3c(O)cccc3C(=O)C23OC13 (configuration not stated)	u
